# Sfp PPTase inh – inhibitors of Bacillus subtilis Sfp phosphopantetheinyl transferase; Q9F4F7; Biochemical Sfp PPTase activity, qHTS; Potency, µM, without a hit: max response, negative = inhibition, hits mostly inhibitors; actives 3.5% (n = 310,000); active means well fitted inhibition curve with a large enough effect; inconclusive means small, poorly fitted or top-dose-only effect, or another doubt; inactive means no such curve, though single readings can be large or run the other way;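 further: the enzyme is Sfp with the accession as filed and its product quenches rhodamine fluorescence; potency means the concentration at half of the fitted maximal effect; 0% = enzyme reaction without inhibitor and -100% = no enzyme wells; top concentration of the series not given in the record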
#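 Fluorescence-quenching assay with 15 nM Sfp, 5 uM rhodamine-CoA and 12.5 uM BHQ-2-labelled ybbR peptide in pH 7.6 Hepes/MgCl2 buffer. Enzyme was pre-incubated with compound for 15 min at room temperature. Rate was taken from the 30-min fluorescence change (525/598 nm).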
# TRPV1 potentiator – enhances activation of the human vanilloid receptor TRPV1; Q8NER1; TRPV1-expressing cells, Fluo-8 calcium influx, capsaicin EC20 potentiation; host cell line not named in the record; control for the full effect not named in the record; potentiation, % at 8.33 µM; actives 0.02% (n = 320,000); AID 540277; active means potentiation above 80%; inconclusive means 30% to 80%; inactive means below 30%; further: 0% is about no effect
# Target sequence (Q8NER1 whole entry, looked up): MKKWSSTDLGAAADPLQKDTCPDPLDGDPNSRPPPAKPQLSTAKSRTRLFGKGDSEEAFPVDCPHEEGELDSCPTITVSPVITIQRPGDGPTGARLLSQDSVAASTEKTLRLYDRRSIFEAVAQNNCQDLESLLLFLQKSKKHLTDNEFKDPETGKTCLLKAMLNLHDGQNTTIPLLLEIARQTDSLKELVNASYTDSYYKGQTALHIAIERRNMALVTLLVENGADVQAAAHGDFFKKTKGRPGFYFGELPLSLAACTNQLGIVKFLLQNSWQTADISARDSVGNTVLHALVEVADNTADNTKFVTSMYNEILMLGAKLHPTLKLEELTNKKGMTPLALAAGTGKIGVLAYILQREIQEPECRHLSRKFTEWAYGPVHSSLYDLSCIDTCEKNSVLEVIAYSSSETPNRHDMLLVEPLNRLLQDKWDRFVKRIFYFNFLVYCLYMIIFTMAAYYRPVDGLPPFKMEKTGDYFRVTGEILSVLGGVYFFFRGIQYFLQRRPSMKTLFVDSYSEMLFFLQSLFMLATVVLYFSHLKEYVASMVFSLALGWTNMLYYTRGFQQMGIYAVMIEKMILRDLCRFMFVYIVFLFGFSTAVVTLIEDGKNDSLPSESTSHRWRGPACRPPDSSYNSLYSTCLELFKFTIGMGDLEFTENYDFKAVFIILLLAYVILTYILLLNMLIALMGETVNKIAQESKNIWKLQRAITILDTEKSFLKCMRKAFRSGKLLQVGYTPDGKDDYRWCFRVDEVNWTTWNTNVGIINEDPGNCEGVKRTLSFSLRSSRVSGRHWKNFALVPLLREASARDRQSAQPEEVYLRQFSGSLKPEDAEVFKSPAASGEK
#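 Fluo-8 calcium influx in TRPV1-expressing cells, kinetic read (ex 480/em 520 nm). Compound added and read 3 min for agonist activity, followed by capsaicin at EC20 final and 2 min further read for enhancement.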
# gsp agonist – agonists of gsp mutant (McCune-Albright syndrome); actives 0.13% (n = 340,000); Potency, µM (series often up to 76.9 µM), for inactives: at the top dose activation (cAMP increase), actives largely listed as activators; gsp mutant cells, cAMP HTRF, 30 min; control for the full effect not named in the record; AID 624287; active = well fitted activation curve with a large enough effect; inconclusive = small, poorly fitted or top-dose-only effect, or another doubt; inactive = no such curve, though single readings can be large or run the other way; cell line not stated here;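 further: phosphodiesterase inhibitor Ro 20-1724 added with compounds to block cAMP breakdown; potency means the concentration at half of the fitted maximal effect; nearly all actives have a fitted effect of over 60% in size; about a fifth of the inactives were tested at one dose only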
#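 Cells stably selected in G418 were plated at 2000/well, grown 16-24 hr, then given compounds in DMSO with the PDE inhibitor […] (300 uM solution added) for 30 min at 37C; cAMP was read by HTRF.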
# ClpP mod – qHTS Assay for Activators of ClpP; ATP-dependent Clp protease proteolytic subunit (Bacillus subtilis (strain 168)), P80244; purified B. subtilis ClpP, FRET peptide cleavage, 20 min; Potency, µM (highest dose often 57.5 µM), without a hit: at the highest dose activity change, negative = active; actives 1.9% (n = 340,000); AID 651965, 2013; active = well fitted falling curve with a large enough effect; inconclusive = small, poorly fitted or top-dose-only effect; inactive = no such curve, though single readings can be large or run the other way; further: potency means the concentration at half of the fitted maximal effect; the source files actives as falling curves though it sought activators and does not explain the sign; nearly all actives have a fitted effect of over 65% in size; many hits overshoot -100%
# Target sequence (P80244 whole entry, looked up): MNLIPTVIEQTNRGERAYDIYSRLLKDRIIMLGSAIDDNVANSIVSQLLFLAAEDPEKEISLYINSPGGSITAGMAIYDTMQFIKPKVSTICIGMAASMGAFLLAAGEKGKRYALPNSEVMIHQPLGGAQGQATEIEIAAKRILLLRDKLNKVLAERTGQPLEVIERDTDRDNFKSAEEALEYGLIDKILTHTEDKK
#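 FRET quenching reversal measured ClpP activation: 10 microg/mL B. subtilis ClpP at pH 8 with the FRET-FV decapeptide, read at 430 nm after 320 nm excitation. The 20-min minus 0-min signal was scaled between DMSO/no-enzyme wells and ADEP (5.8 microM final).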
# gsp antagonist – gsp mutant antagonism. gsp-mutant cells, cAMP HTRF, 30 min; control for the full effect not named in the record. Potency, µM (titrated, usually from 76.9 µM), for inactives: top-dose activity change, negative = inhibition, most hits filed as inhibitors. actives 0.4% (n = 340,000). AID 624288; active = falling curve of any shape with a large fitted effect; inconclusive = falling curve, mostly with a smaller effect; inactive = flat or rising curve; cell line not stated here;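 further: intracellular cAMP measured with PDE inhibitor Ro 20-1724 present during compound exposure; potency means the concentration at half of the fitted maximal effect; on the % scale 0 is the no-effect control and ±100 the full control effect; nearly all actives have a fitted effect of over 65% in size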
#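 Cells in G418 medium, seeded 16-24 h, 37C; buffer exchange to DPBS + 1 mM CaCl2, 0.5 mM MgCl2, 0.05% BSA; cpds in DMSO + […] (300 uM stock), 30 min 37C; HTRF cAMP detection.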
# Menin-MLL FL inh – displaces fluorescein MLL peptide from human menin; FP activity change, % at 61.4 µM; Fluorescence polarization, fluorescein-MLL peptide displacement from menin; 290,000 tested, under 10 active; AID 1766; inconclusive = falling polarisation curve, or a change in total fluorescence; inactive = total fluorescence flat and polarisation flat or rising; no compound was filed as active; the % refers to the polarisation; negative = inhibition;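 further: % of control where 0% means no effect; inhibitors lower the polarisation; unlabelled MLL peptide was the positive control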
# CtBP-E1A blk – inhibitors of CtBP/E1A interaction. actives 0.49% (n = 340,000). activity change, % (test concentration not listed). AID 651724. AlphaScreen GST-E1A/His-CtBP binding, 1536-well; stronger effect = lower value; control for the full effect not named in the record; in the data active means activity change below about -65%; inconclusive means about -30% to -65%; inactive means above about -30%; further: on the % scale 0 is the no-effect control and ±100 the full control effect; compound concentration not given in the record
#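 In 5 uL wells, 23 nL compound meets equimolar GST-E1A and His-CtBP (5X stock 125 nM each) for 2 h, 37 °C. Beads (5X, 50 ug/mL) then 1 h, 37 °C, dark.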
# Numbers without * were called inactive; ? = inconclusive; · = no result given; & = joins results of further samples; [ ] = dose if it differs, or a comment.
SMILES,Sfp PPTase inh,TRPV1 potentiator,gsp agonist,ClpP mod,gsp antagonist,Menin-MLL FL inh,CtBP-E1A blk
Cc1ccc(-c2nnc(CSc3nc4cc5c(cc4cc3C)OCO5)o2)cc1,-7%,-3,-25%,-1.6%,5%,5.5,4
COc1ccc(-n2c(CN3CCOCC3)nc3ccc([N+](=O)[O-])cc3c2=O)c(OC)c1,?,-4,14%,0.7%,-6%,0.2,3
COc1ccc(S(=O)(=O)Nc2cccc3c2O[C@H](CN(C)Cc2ccc(Cl)c(Cl)c2)[C@@H](C)CN([C@H](C)CO)C3=O)cc1,·,·,-5%,-3.5%,-31%,·,-7
CCN(CC(=O)Nc1ccc(NC(C)=O)cc1)C(=O)C1CC1,·,·,?,-2.7%,·,·,0
C=CCNC(=S)/C(=C(/[O-])c1ccccc1Br)[n+]1ccccc1,0%,13,27%,0.4%,-3%,-0.3,-9
O=S(=O)(c1ccc(S(=O)(=O)N2CCN3CCCC3C2)cc1)N1CCCC1 (configuration not stated),7%,6,-4%,-0.1%,3%,1.9,0
CCOc1cc(S(=O)(=O)n2ccc(C)n2)ccc1Br,17%,-8,-6%,·,2%,0.3,2
CSCCC(NC(=O)c1ccco1)C(=O)Nc1ccc(C)cn1 (configuration not stated),·,8,38%,-2.6%,12%,·,2
Cc1cc(C)nc(SCc2cn3c(C)cccc3n2)n1,3%,4,-5%[15.4 µM],1.2%,18%,3.1,1
O=C(NCC1CCCO1)c1cc2nc(-c3ccco3)cc(C(F)(F)Cl)n2n1 (configuration not stated),6%,1,7%,-4.6%,4%,0.6,-5
C[C@H]1CN([C@@H](C)CO)S(=O)(=O)c2ccc(Br)cc2O[C@@H]1CN(C)Cc1ccccc1,·,·,-6%,-0.1%,·,·,-12
Cc1cccc(Cn2nc(C(C)(C)C)cc2C(=O)Nc2ccc(F)cc2)c1,28%,20,10%[15.4 µM],·,?,1.4,14
Cc1ccc(-n2c(SCC(=O)NCc3ccc4c(c3)OCO4)nnc2-c2cccnc2)c(C)c1,4%,15,2%[15.4 µM],-1.2%,-15%,2.9,-5
CCn1c(=O)c([N+](=O)[O-])c(NCC2CCCO2)c2ccccc21 (configuration not stated),20%,4,-12%[15.4 µM],·,-6%,2.1,-2
CN(CC(=O)Nc1ccccc1C(F)(F)F)C(=O)c1ccccc1Sc1ccccc1C#N,·,-4,-17%,-4.0%,-4%,·,-5
O=C1NC(=Nc2ccccc2)SC1Cc1ccccc1 (configuration not stated),18%,14,11%[15.4 µM],·,1%,-25,8
COC(=O)C(C)Sc1nnc(-c2ccncc2)o1 (configuration not stated),10%,-26,10%,-3.7%,1%,0.0,8
CCc1noc(C)c1C(=O)N(CC)CC(=O)Nc1cc(Cl)ccc1C,·,7,-2%,1.2%,0%,·,2
CC(C)(C)Nc1nc(OCC(F)(F)F)nc(OCC(F)(F)F)n1,21%,-11,-4%,1.2%,-1%,3.6,7
Cc1nc(SCC2(C)CC2(Cl)Cl)n[nH]1 (configuration not stated),12%,-7,7%,·,16%,-7.1,4
Cc1nn(CC(=O)NCCCc2ccccc2)c(=O)c2cccn12,20%,-3,25%,-0.5%,8%,-0.3,·
COc1cc(CCCN2CCNC[C@H]2Cc2ccc(O)cc2)cc(OC)c1OC,·,-15,·,1.5%,-1%,·,4
Cc1cccc(C(=O)NNC(=O)c2ccccc2O)c1,27%,1,-23%,-1.4%,1%,0.0,·
CCOC(=O)c1c(NC(=O)CSc2nnc(Cc3ccccc3)o2)sc(C)c1C,10%,3,-54%[inhibitor],-0.5%,1%,0.3,0
Cn1c(=O)n(C)c2cc(NS(=O)(=O)c3ccc4c(c3)CCCC4)ccc21,2%,-4,-14%,-3.2%,?,-0.2,-6
S=c1[nH]nc(CNc2ccc(Cl)cc2)n1Cc1ccccc1,7%,-5,-2%[15.4 µM],·,·,0.9,-12
O=C(Cc1ccc(-n2cccc2)cc1)NCc1ccccc1Cl,1%,-14,-28%,1.6%,29%,3.3,-4
CCCCN1C(=O)CC2CCOC21C (configuration not stated),·,·,2%,-0.5%,·,·,4
Cc1cccc(C(=O)Nc2oc(-c3ccccc3)cc2C#N)c1,10%,-7,28%,55%,-16%,8.5,-2
C#CCOCCOCCOCCNc1nc(N2CCN(C(=O)[C@H](Cc3ccc(O)cc3)n3cc(C(N)CC(C)C)nn3)CC2)nc(N2CCN(C(=O)[C@H](CCC(=O)O)n3cc(C(N)[C@H](C)CC)nn3)CC2)n1 (some centres not stated),-17%,-4,26%,?,5%,2.8,-15
Cc1ccc(S(=O)(=O)Nc2ccc(O)c3ncccc23)cc1,4%,1,-46%[inhibitor],0.7%,-12%,0.9,-93*
CCCCCN(C(=O)CCC(=O)OCc1cc(C)ccc1C)c1c(N)n(CCCC)c(=O)[nH]c1=O,·,-14,-58%[15.4 µM],·,3%,·,-23
COC(=O)C1=NNC2(c3ccc(Cl)cc3)C(=O)N(c3ccccc3)C(=O)C12 (configuration not stated),8%,-1,-7%,0.6%,-6%,-0.2,17
CCOC(=O)/C=c1\s/c(=C\c2ccc(-c3ccccc3)cc2)c(=O)n1CC(=O)NCc1ccc2c(c1)OCO2,-9%,0,-20%,-1.9%,7%,·,-4
COc1ccc(/C=N/NC(=O)c2ccncc2)c(C(=O)O)c1OC,-5%&22%,-25,5%,·,10%,-11&4.6,6
C=CCNC(=S)NCc1cccnc1,79µM*,?,?,0.1%,6%,7.4,9
COc1ccc(C(=O)Nc2ccc(NC(=O)c3ccco3)c(Cl)c2)cc1OC,-4%,11,-4%,-7.4%,1%,0.6,1
COc1ccc(S(=O)(=O)N(CC(=O)NCc2cccnc2)C2CCCCC2)cc1OC,13%,-8,-5%,0.2%,7%,0.6,6
O=C(Nc1ccc(Cl)c(Cl)c1)OCc1cnc(Cl)s1,-16%,19,4%,0.7%,-20%,3.1,18
Cc1cc(-c2nc3ncccc3o2)ccc1NC(=O)c1ccc([N+](=O)[O-])o1,·,·,1%[15.4 µM],·,-4%,·,25
Cc1ccc(N2CN(S(=O)(=O)c3cccc([N+](=O)[O-])c3)c3nc4ccccc4nc32)cc1,-3%,-8,?,-12%,9%,·,-4
CNC(=O)COC(=O)c1cc(SC)ccc1Cl,17%,-1,-1%[15.4 µM],0.4%,11%,-3.9,5
O=C(COc1ccccc1O)N1CCN(C(=O)c2ccco2)CC1,13%,-5,-24%,-1.4%,-7%,4.3,1
O=C(NCc1ccco1)c1cccc(Nc2nc3ccc(Br)cc3[nH]2)c1,18%,-26,·,-15%,-24%,-4.0,-2
O=C1C2C3C=CC(C3)C2C(=O)N1c1cccc(N2C(=O)C3C4C=CC(C4)C3C2=O)n1 (configuration not stated),21%,-7,?,-0.8%,6%,0.7,-1
COCC1=C(C(=O)OC)C(c2cccs2)n2ncnc2N1 (configuration not stated),23%,-2,23%[15.4 µM],·,4%,-5.7,-1
Cc1ccc(C(C(=O)NC(C)(C)C)N(C(=O)c2csnn2)c2ccccc2F)o1 (configuration not stated),4%,-5,39%,-2.4%,0%,4.6,-9
CC#C[C@@H](CC)c1ccc2ccn(C)c2c1,·,?,·,-2.2%,1%,·,-5
CC(=O)NCCC1CCCCN1Cc1nc(Cc2cccc(C(F)(F)F)c2)no1 (configuration not stated),-3%,-6,3%,·,8%,-2.3,3
Cc1cc(C)nc(SCc2ccc([N+](=O)[O-])cc2)n1,-1%,16,-4%,0.5%,1%,-1.3,3

# 3 of the entries above in order of their number in Menin-MLL FL inh, highest first.
mol	Menin-MLL FL inh
Cc1ccc(C(C(=O)NC(C)(C)C)N(C(=O)c2csnn2)c2ccccc2F)o1 (configuration not stated)	4.6
O=C(COc1ccccc1O)N1CCN(C(=O)c2ccco2)CC1	4.3
O=C1C2C3C=CC(C3)C2C(=O)N1c1cccc(N2C(=O)C3C4C=CC(C4)C3C2=O)n1 (configuration not stated)	0.7

# Next section
SMILES,Sfp PPTase inh,TRPV1 potentiator,gsp agonist,ClpP mod,gsp antagonist,Menin-MLL FL inh,CtBP-E1A blk
COc1cc(NC(=O)c2ccco2)c(OC)cc1NC(=O)Nc1ccccc1Cl,?,1,0%,13%,4%,2.6,-8
COC(=O)c1ccc2c(c1)N(Cc1cc(C)ccc1C)C(=O)c1ccccc1S2=O (configuration not stated),23%,-4,·,·,·,5.5,·
COc1ccc(NC(=O)N(C)C[C@H]2Oc3ncc(Br)cc3C(=O)N([C@H](C)CO)C[C@@H]2C)cc1,·,·,26%,0.2%,·,·,-1
COc1ccc(OC)c(C(=O)N(C[C@H]2CC[C@@H]([C@@H]3CC[C@H](CO)O3)O2)C(C(=O)NC(C)(C)C)c2ccc(-c3ccccc3)cc2)c1 (some centres not stated),·,·,·,-6.7%,-21%,·,0
O=C1N2CCSC2=NC1(Nc1nccs1)C(F)(F)F (configuration not stated),-6%,-2,9%,-0.9%,5%,1.8,2
CC1CC/C(=C\c2ccc3c(c2)OCO3)C(=O)/C1=C/c1ccc2c(c1)OCO2 (configuration not stated),-8%,11,4%,-2.1%,9%,?,0
O=C(NC(=S)NCCO)c1cn(-c2ccccc2)nc1-c1ccccc1,-13%,1,0%,·,7%,2.9,0
O=C(Nc1ccc([N+](=O)[O-])cn1)c1cc(-c2cccc(Br)c2)nc2ccccc12,6%,8,-6%[15.4 µM],179%,8%,·,-11
CC1(C)CC(=O)C(Sc2ccccc2)=C(O)C1,-12%,6,17%,·,-5%,2.0,-4
COc1ccc(/C=C/CN2CCN(Cc3cccc(OC)c3)C(CCO)C2)cc1 (configuration not stated),10%,2,-38%,0.1%,3%,-3.8,4
CN1CCC(Oc2ccc(Sc3ccccc3)cc2)CC1,-9%,1,?,-3.5%,-7%,-0.6,-13

# Assay outcomes deposited in PubChem BioAssay by National Center for Advancing Translational Sciences (NCATS).

# No enrichment for hits; about 5.3% have a hit in one of these screens.
